VACV Venus inh: vaccinia inhibition (Venus reporter); 330,000 tested, 0.46% active; Potency, µM (top dose mostly 36.5 µM), inactives show top-dose activity change, negative = inhibition, hits mostly inhibitors; Vaccinia virus Venus reporter expression, fluorescence; active means well fitted inhibition curve with a large enough effect; inconclusive means small, poorly fitted or top-dose-only effect; inactive means no such curve, though single readings can be large or run the other way; tested in A549 cells; also: nearly all actives have a fitted effect of over 30% in size; inactives centre near -10
Vaccinia mCherry: vaccinia inhibition (mCherry reporter); Vaccinia virus mCherry reporter infection, fluorescence; about a quarter of the inactives have no number; Potency, µM (top dose mostly 36.5 µM), for inactives: at the top dose activity change, negative = inhibition, most hits filed as inhibitors; 310,000 tested, 0.63% active; AID 720579; active = well fitted inhibition curve with a large enough effect; inconclusive = small, poorly fitted or top-dose-only effect; inactive = no such curve, though single readings can be large or run the other way; tested in A549 cells; also: nearly all actives have a fitted effect of over 35% in size; inactives centre near -10
* marks the source's active call; other numbers are inactive results; i = inactive; u = inconclusive; x = no result given; & = joins results of further samples; [ ] = another dose, or the depositor's remark. % is scaled to controls: 0 for no effect and ±100 for the full control effect; potency is read from the fitted curve at half-maximal effect.

SMILES | VACV Venus inh | Vaccinia mCherry
COc1cccc(NC(=O)c2ccccc2-c2nc(-c3ccc(F)cc3)no2)c1 | -23.0% | i
CCOC(=O)c1cc2c(=O)n3ccccc3nc2n(CC(C)C)c1=NC(=O)c1c(-c2c(F)cccc2Cl)noc1C | -11.1%&-11.2% | -19.7%&-16.3%
O=C(O)CCC1(C(=O)O)CCC(=O)c2ccccc21 (stereo not drawn) | -0.6% | -12.5%
COc1cc(C2C(=O)N(C3CCCCC3)CC(=O)N2Cc2ccc(C)cc2)ccc1OC(C)C (stereo not drawn) | -10.1% | -11.6%
C=CCOC(=O)C1=C[C@@H](c2ccc3c(c2)OCO3)C[C@@H](OCCCCO)O1 | u | i
COc1ccc(OCC(=O)NNC(=O)c2c(-c3ccccc3Cl)noc2C)cc1 | -20.6% | -23.8%
CC1=C(C(=O)OCC2CCCO2)C(c2ccc(F)cc2)NC(=O)N1 (stereo not drawn) | -9.3% | i
CCOc1ccc(NC(=O)CSc2nc(-c3ccccc3)c3cc(OCC)ccc3n2)cc1 | u | u
CO/N=C(\C(=O)N[C@@H]1C(=O)N2C(C(=O)OCOC(=O)C(C)(C)C)=C(/C=C\c3scnc3C)CS[C@H]12)c1csc(N)n1 | -4.7% | i
CCS(=O)(=O)NCC(c1ccco1)N1CCN(c2ccccc2F)CC1 (stereo not drawn) | -3.7% | -1.9%
COC(=O)Cc1c(O)ccn(CCc2ccccc2)c1=O | 0.8% | -11.6%
Brc1c(CSc2nc3ccccc3s2)nc2ncccn12 | -9.6% | -23.2%
COc1ccc(-n2nnnc2SCC(=O)N(C)C2CCS(=O)(=O)C2)cc1 (stereo not drawn) | -5.9% | -17.0%
COc1ccc(Nc2nc(-c3cccnc3)nc3ccccc23)cn1 | -6.4% | -22.7%
Cc1c(CCC(=O)N2CCC[C@H]2C(=O)O)c(=O)oc2cc3oc4c(c3cc12)CCCC4 | 5.7% | 0.6%
c1csc(-c2nc3nc4ccccc4nc3n2Cc2ccc3c(c2)OCO3)c1 | -14.8% | -16.9%
O=C(CCNS(=O)(=O)c1ccccc1)NCCCSc1ccccc1 | -17.6% | -6.4%
CC[N+]1(CC(=O)c2cccs2)CCCCC1 | -4.5% | 6.7%
CCCC(=O)Nc1cccc(C(=O)Nc2nccs2)c1 | -4.2% | -7.8%
COC(=O)c1ccc(CNC(=O)c2nc(Cn3nc(C)c(Br)c3C)no2)cc1 | 12.3% | -6.3%
O=C(c1cnsn1)N1CCC(CO)(Cc2ccc(Cl)cc2)CC1 | -7.1% | -7.6%
COc1ccc(-c2noc(-c3ccccc3C(=O)Nc3cccnc3)n2)cc1 | -13.9% | x
CCOC(=O)C1=C(c2ccccc2)N=c2s/c(=C\c3cccc(O)c3)c(=O)n2C1c1cccs1 (stereo not drawn) | u | -20.8%
CCc1ccccc1NC(=O)N[C@H](C(=O)O)C(C)C | -7.2% | x
COc1ccc(-c2csc(NC(=O)COC(=O)C3=COCCO3)n2)cc1 | -3.1% | -8.2%
Cc1ccc(OCCC(=O)OCC(=O)Nc2ccc(Cl)cn2)cc1 | -6.0% | x
CC(C)CN(C(=O)CN(C)C(=O)Cc1ccccc1Cl)c1c(N)n(CC(C)C)c(=O)[nH]c1=O | -17.7% | -0.1%
O=C(c1ccco1)N1CCN(C(c2ccccn2)c2nnnn2C2CCCC2)CC1 (stereo not drawn) | -7.7% | i
COC(=O)C1=C(C)N(Cc2ccccc2)C(=NCCN2CCOCC2)N[C@H]1CCc1ccccc1 | -7.3% | i
CC(C)CC(NC(=O)OCc1ccccc1)C(=O)NC(Cc1c[nH]c2ccccc12)C(=O)O (stereo not drawn) | 3.9% | -6.4%
CCc1ccc(N2CC(O)(c3cccs3)[N+]3=C2SCCC3)cc1 (stereo not drawn) | -26.6% | -4.9%
Cc1cc(C)c(-n2c(SCCS(=O)(=O)c3ccc(F)cc3)n[nH]c2=O)c(C)c1 | 2.82µM* | 2µM*
CN(CC(=O)Nc1ccccc1C(F)(F)F)C(=O)c1ccc(-c2ccc(Cl)cc2)o1 | -28.4% | -14.3%
COc1ccc(S(=O)(=O)N(C)C)cc1NCC(=O)Nc1ccc(F)cc1F | -7.5% | -10.3%
COc1cc(OC)c(NC(=O)c2c3c(nn2C)-c2ccccc2SC3)cc1Cl | -19.1% | 52.2%[activator]
CC(=O)Nc1ccc(S(=O)(=O)Nc2nc(CN3CCOCC3)nc3sc4c(c23)CCCC4)cc1 | -7.1% | -14.9%
COc1ccc(-c2nc3cc(F)ccc3cc2CN(C(=O)c2cccc(OC)c2)C2CC2)cc1 | -10.3% | -0.5%
Cc1cccc(Cn2c(=O)n(CCC(=O)NCCc3ccc(Cl)cc3)c(=O)c3sccc32)c1 | -14.4% | -3.5%
COc1cccc(CNC(=O)Cn2nc(-c3ccc(C)cc3)ccc2=O)c1 | -3.4% | -1.1%
O=C(NC1CCS(=O)(=O)C1)/C(=C\c1ccccc1)NC(=O)c1ccccc1 (stereo not drawn) | -2.5% | -11.8%
Cc1cccc(C)c1NC(=O)CN1CCN(C(=O)CNC(=O)c2ccc(-c3ccccc3)cc2)CC1 | u | -29.7%
O=S(=O)(c1ccc(Cl)cc1)c1nnn2c1nc(NC1CCCC1)c1sccc12 | u | -7.4%
Cc1ccc(Cl)cc1-n1ncc2c(NNC(=O)c3ccco3)ncnc21 | 2.5% | -16.2%
CC1CCCN(CCCOc2ccc(Cl)cc2Br)C1 (stereo not drawn) | -25.1% | -24.7%
CCn1nc(C)cc1C(=O)N1CCc2c([nH]c3ccccc23)C1c1cc(F)ccc1F (stereo not drawn) | -25.9% | -27.8%
O=Cc1c[nH]c2ccc(C(=O)c3ccccc3)cc12 | -5.6% | -20.0%
CCc1ccccc1Nc1nn2c(=O)c3ccc(C(=O)Nc4cc(C)cc(C)c4)cc3nc2s1 | u | u
Cc1ccccc1S(=O)(=O)Cc1ccc(C(=O)NCCN(CC(C)C)CC(C)C)o1 | -28.5% | u
COc1ccc(NC(=O)CCc2nnc3n(CC(C)C)c(=O)c4ccccc4n23)cc1OC | -7.7% | i
CC(C)n1nnnc1C1c2ccccc2C(=O)N1CCCN1CCOCC1 (stereo not drawn) | 7.9% | 5.4%
O=c1c(C(c2ccccc2)c2c(O)nc3n(c2=O)CCCS3)c(O)nc2n1CCCS2 | -3.8% | -19.5%
c1coc(-c2cc3nc(NCc4ccc5c(c4)OCO5)ccn3n2)c1 | -18.7% | i
COC(=O)c1ccc(COC(=O)c2cccn2C)o1 | -1.9% | -11.7%
O=c1oc2ccccc2n1Cc1cccc(C(F)(F)F)c1 | -6.0% | -11.7%
O=C(CCl)c1ccc(O)c(O)c1 | 5.3% | 2.4%
CC(C)(C)c1ccc(S(=O)(=O)N2CCC(N3CCCCC3)CC2)cc1 | 2.2% | -8.5%
Cc1ccc(NC(=O)C2CC(=O)N(c3ccccc3Cl)C2)cc1S(=O)(=O)N1CCOCC1 (stereo not drawn) | -16.1% | -14.2%
CC(=O)c1c(C(C)=O)c(C)n(-c2ccc(N)cc2)c1C | -16.3% | x
O=C1Nc2ccccc2/C1=N/N=C/c1cccc(O)c1 | 5.9% | u
O=C(OCC(=O)N1CCN(C(=O)c2ccco2)CC1)C1=COCCO1 | -17.7% | 4.8%

(more compounds)
SMILES | VACV Venus inh | Vaccinia mCherry
CCOc1ccc(S(=O)(=O)NCc2nc3cccnc3n2Cc2ccccc2OC)cc1 | -7.7% | -21.6%
CC1Sc2ccc(S(=O)(=O)N3CCC(C(N)=O)CC3)cc2NC1=O (stereo not drawn) | -15.4% | -20.6%
Cc1ccc(N)cc1CN1CCCC1=O | 11.7% | x
S=C(c1ccccc1)N1CCSCC1 | -2.3% | -7.4%
NC(=O)CSc1nnc(-c2ccccn2)n1Cc1ccco1 | -3.3% | -11.4%
CSCCC(NC(=O)c1ccc(Cl)cc1Cl)C(=O)NCc1ccccn1 (stereo not drawn) | -7.8% | -14.5%
O=S(=O)(NCc1ccccc1)NCc1ccccc1 | -9.7% | -3.5%
c1ccc(CNC2CC3CCC2C3)cc1 (stereo not drawn) | 1.0% | i
CCCCN(C(=O)/C=C/c1ccc(OC)cc1)C1CCS(=O)(=O)C1 (stereo not drawn) | -5.8% | -19.1%
Cc1ccc(SCCC(=O)NNC(=O)c2ccccc2F)cc1 | 7.1% | -11.6%
CCC(C)(C)NC(=O)C1CCN(S(=O)(=O)c2cccs2)CC1 | -13.2% | i
COc1cc(NC(=O)c2ccc(-c3cn[nH]c3)c3ccoc23)cc(OC)c1OC | -19.2% | 18.2%
Cn1c(=O)n(CCCc2ccccc2)c(=O)c2c1nc1n2CCN1c1ccccc1 | -17.5% | -17.8%
CCc1ccc(OCC(=O)NC(=S)Nc2ccc(C(C)=O)cc2)c(Br)c1 | -4.9% | i
COC(=O)N1CC=CC1(C)C(=O)NCc1cc(F)cc(C(F)(F)F)c1 (stereo not drawn) | -2.4% | -2.1%
c1ccc(CCc2cn(C[C@H]3CC[C@@H]([C@@H]4CC[C@H](Cn5cc(CCc6ccccc6)nn5)O4)O3)nn2)cc1 | -19.0% | -5.0%
CCOC(=O)N1CCN(C(=O)CNC(=O)c2ccc(Br)cc2)CC1 | -9.0% | i
CC(=O)NC(Cc1ccccc1)C(C)=O (stereo not drawn) | -1.8% | i
CCO[C@@H]1OC(C(=O)N2CCCCCCC2)=C[C@H](c2ccc(C(F)(F)F)cc2)[C@H]1CCCO | -18.6% | -6.1%
CC(=O)N1CCCc2cc(S(=O)(=O)N3CCC(C)CC3)ccc21 | 0.8% | i

Given as tab-separated lines: 2 of the compounds above
Compound	VACV Venus inh	Vaccinia mCherry
CC(C)(C)c1ccc(S(=O)(=O)N2CCC(N3CCCCC3)CC2)cc1	2.2%	-8.5%
CC[N+]1(CC(=O)c2cccs2)CCCCC1	-4.5%	6.7%

Further results.
SMILES | VACV Venus inh | Vaccinia mCherry
O=C(CNC(=O)c1ccccc1)NCC(=O)OCC(=O)c1ccccc1 | 0.9% | i
Clc1ccc(NC2=NCCC2)cc1Cl | -16.7% | x
c1ccc(C2[C@H]3CN(CC4CCCCC4)[C@H](c4ccccc4)C34CC2(c2cccnc2)C4)cc1 (stereo partly drawn) | -17.0% | -15.0%
O=C1C2C3CCC(C3)C2C(=O)N1CNc1ccccc1 (stereo not drawn) | -18.6% | -20.6%
CCc1ccc(NC(=S)Nn2cnnc2)cc1 | -6.9% | -11.6%
CCOc1c(Br)cc(CNCc2cccs2)cc1OC | -8.2% | -10.8%
Cc1noc(C)c1C(=O)N1CCCC(C)(C(=O)NS(=O)(=O)C2CC2)C1 (stereo not drawn) | -5.9% | 46.8%[activator]
O=C(CCC1CCCCC1)Nc1nncs1 | -8.2% | i
O=C(CN1C(=O)C2CC=CCC2C1=O)NC1CCCc2ccccc21 (stereo not drawn) | -3.2% | -8.2%
CC(=O)Nc1ccc(NC(=O)c2ccccc2Sc2ccc([N+](=O)[O-])cc2Cl)cc1 | -18.9% | -26.2%
Cc1cc2nc(SC(C)C(=O)O)[nH]c2cc1C (stereo not drawn) | -9.7% | -2.5%
O=C(c1cccc(Cl)c1)N(Cc1cccs1)C1CCS(=O)(=O)C1 (stereo not drawn) | -13.6% | -14.3%
O=C1/C(=C/c2ccccc2)CN(C(=O)CCN2CCOCC2)C/C1=C\c1ccccc1 | u | u
CN1c2ccsc2/C(=N/Nc2ccc(F)cc2)CS1(=O)=O | 4.4% | -4.5%
CCCn1c(SC(C)C(=O)NCC2CCCO2)nc2sc(CC)cc2c1=O (stereo not drawn) | -16.4% | i
N#CCC(=O)N1CCn2c1nc1ccccc12 | -15.2% | x
NC(=S)NN=CCn1cc([N+](=O)[O-])c(=O)[nH]c1=O | -27.7% | -15.1%
C#CCOCCOCCOCCNc1nc(N2CCN(C(=O)Cn3cc(CCO)nn3)CC2)nc(N2CCN(C(=O)[C@H](C(C)C)n3cc(CCO)nn3)CC2)n1 | -4.6% | i
Cc1ccc(C)c(NC(=O)CSc2nnc(CNC(=O)c3ccco3)n2C)c1 | 7.2% | -14.9%
CC(C)c1ccccc1OCCNC(=S)NC(=O)c1cccnc1 | -15.2% | -15.9%
CCOc1cc(/C=C(\C#N)C(=O)NCC2CCCO2)ccc1O (stereo not drawn) | -0.6%&-9.6% | -14.7%
CC(=O)N1CCN(c2ccc(NC(=O)c3ccccc3Cl)cc2)CC1 | -14.6% | i

Gathered by group, the compounds so far containing a furan ring, fused or not (12)
SMILES | VACV Venus inh | Vaccinia mCherry
CCS(=O)(=O)NCC(c1ccco1)N1CCN(c2ccccc2F)CC1 (stereo not drawn) | -3.7% | -1.9%
Cc1c(CCC(=O)N2CCC[C@H]2C(=O)O)c(=O)oc2cc3oc4c(c3cc12)CCCC4 | 5.7% | 0.6%
O=C(c1ccco1)N1CCN(C(c2ccccn2)c2nnnn2C2CCCC2)CC1 (stereo not drawn) | -7.7% | i
CN(CC(=O)Nc1ccccc1C(F)(F)F)C(=O)c1ccc(-c2ccc(Cl)cc2)o1 | -28.4% | -14.3%
Cc1ccc(Cl)cc1-n1ncc2c(NNC(=O)c3ccco3)ncnc21 | 2.5% | -16.2%
Cc1ccccc1S(=O)(=O)Cc1ccc(C(=O)NCCN(CC(C)C)CC(C)C)o1 | -28.5% | u
c1coc(-c2cc3nc(NCc4ccc5c(c4)OCO5)ccn3n2)c1 | -18.7% | i
COC(=O)c1ccc(COC(=O)c2cccn2C)o1 | -1.9% | -11.7%
O=C(OCC(=O)N1CCN(C(=O)c2ccco2)CC1)C1=COCCO1 | -17.7% | 4.8%
NC(=O)CSc1nnc(-c2ccccn2)n1Cc1ccco1 | -3.3% | -11.4%
COc1cc(NC(=O)c2ccc(-c3cn[nH]c3)c3ccoc23)cc(OC)c1OC | -19.2% | 18.2%
Cc1ccc(C)c(NC(=O)CSc2nnc(CNC(=O)c3ccco3)n2C)c1 | 7.2% | -14.9%

This is a random part of the collection. About 0.86% of those tested had a hit in this group.
